# Source: PubChem BioAssay (several laboratories)
# Ecoli growth: blocks Escherichia coli growth; OD600, 23 h; stronger effect = lower value; OD600 absorbance (no concentration beside the values); 330,000 compounds, 0.21% hits; AID 1053175;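 active means OD600 absorbance below the run mean of sample wells minus 3.6 SD, in any replicate, cut at about 0.56 in these data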;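 further: stock transfer was 300 nL into about 60 µL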
# FGF22 binding: FGF22 (human) thermal shift binding. Q9HCT0. recombinant FGF22 thermal shift, SYPRO orange fluorescence; percent of sucrose octasulfate shift, DMSO zero. calls only at 9.99 µM. 340,000 compounds, 1.5% hits;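 active means melting point raised past a set limit in the mean and every replicate; inconclusive means no clear call; three in four hits are not shown here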
# Target sequence (Q9HCT0 whole entry, looked up): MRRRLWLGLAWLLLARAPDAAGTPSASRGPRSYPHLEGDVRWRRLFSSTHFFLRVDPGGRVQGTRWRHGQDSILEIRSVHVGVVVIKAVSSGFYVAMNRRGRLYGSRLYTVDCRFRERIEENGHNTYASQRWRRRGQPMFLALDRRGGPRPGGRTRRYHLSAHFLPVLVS
# AF4-AF9 inh: inhibitors of human MLL-AF4/AF9 interaction | P42568 | 350,000 compounds, 0.47% hits | AID 651704 | AlphaScreen, biotin-AF4 peptide binding to FLAG-AF9 | inhibition, % at 10 µM;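 active means every replicate reaching a set inhibition limit, whatever the replicate mean, cut at about 25% in these data; inconclusive means mean inhibition reaches that limit but some replicates miss it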;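 further: 0% = plate neutral control median and 100% = total signal loss; the record names both 10 and 1 µM as test concentration; the first replicate is given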
# Vif TR-FRET: inhibitors of Vif binding to APOBEC3G peptide, primary screen, biochemical, TR-FRET, GST-Vif 1-94, biotin-A3G peptide, dose response retest (AID 1117319). TR-FRET GST-Vif / biotin-A3G peptide binding; higher % means a stronger effect; test concentration not given here; strong numbers were not always called active. one-dose inhibition, %; IC50 in µM for titrated hits. 260,000 compounds, 0.57% hits;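 active means above the screen mean plus three standard deviations and confirmed in dose response; inconclusive means results disagree or hit not tested in dose response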;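 further: Vif residues 1-94 fused to GST binding biotinylated APOBEC3G peptide 110-148; 0% = full assay without inhibitor and 100% = GST in place of GST-Vif; retest series ran down from 100 µM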
# Ecoli rRNA inh: inhibits bacterial ribosomal RNA function over humanized ribosomes. 350,000 compounds, 1.6% hits. E. coli WT GFP vs humanized-ribosome RFP mutants, fluorescence, 24 h; stronger effect = lower value; DMSO median 0, no signal -100. GFP signal change (wild-type ribosome), % (test concentration not listed);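 active means significant combined selectivity score with lowered wild-type GFP, culture density cut under 30%, mutant RFP and density less affected; inactive means any of these conditions unmet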; further: one replicate is shown; some compounds called inactive have numbers as strong as hits
# HNF4A DNA FP: change in binding of human HNF4 alpha to DNA | P41235 | HNF4a-FITC DNA binding, fluorescence polarization, 1 h | AID 1224865 | 360,000 compounds, 0.3% hits | activity change, % at 10 µM; in the data active means activity change above about 30%, passing the limit was not always enough;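 further: controls were the assay level and a saturating level of protein; the project sought stronger binding though the title names inhibitors; some compounds called inactive have numbers as strong as hits; positive values seem to mean higher polarization but the record does not say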
# Target sequence (P41235 whole entry, looked up): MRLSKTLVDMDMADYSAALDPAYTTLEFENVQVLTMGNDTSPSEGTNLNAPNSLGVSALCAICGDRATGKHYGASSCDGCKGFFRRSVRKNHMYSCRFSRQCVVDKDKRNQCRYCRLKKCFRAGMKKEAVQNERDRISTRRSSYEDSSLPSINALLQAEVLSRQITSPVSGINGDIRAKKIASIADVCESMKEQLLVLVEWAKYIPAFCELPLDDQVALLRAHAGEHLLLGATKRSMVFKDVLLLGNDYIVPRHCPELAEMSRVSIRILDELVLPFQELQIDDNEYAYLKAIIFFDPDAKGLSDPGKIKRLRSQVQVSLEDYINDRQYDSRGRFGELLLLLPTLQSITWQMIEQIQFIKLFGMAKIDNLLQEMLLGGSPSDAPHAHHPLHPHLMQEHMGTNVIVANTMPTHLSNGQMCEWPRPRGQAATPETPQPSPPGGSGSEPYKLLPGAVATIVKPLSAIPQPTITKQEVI
# ALR H2O2 inh: human ALR oxidase inhibition via reduced H2O2 | inhibition, % (concentration not given with the values) | 290,000 compounds, 3.8% hits | P55789 | purified ALR, DTT oxidation, H2O2 HRP-luminol luminescence;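 active means mean and each replicate at 75% or more; inconclusive means only one of the two met; inactive means neither met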;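 further: stock transfer was 7.5 nL into about 7.5 µL; 0% = neutral wells and 100% = wells with inactivated enzyme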
# Target sequence (P55789 whole entry, looked up): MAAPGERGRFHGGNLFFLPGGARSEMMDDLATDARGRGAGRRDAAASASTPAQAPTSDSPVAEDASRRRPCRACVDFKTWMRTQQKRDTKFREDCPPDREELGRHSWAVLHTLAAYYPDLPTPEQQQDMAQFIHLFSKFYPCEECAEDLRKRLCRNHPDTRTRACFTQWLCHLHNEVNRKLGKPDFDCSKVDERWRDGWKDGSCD
# Ecoli rRNA inh OD600: also measured in Ecoli rRNA inh; calls as there; OD600 change, %; measured here: OD600 growth;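 optical density of the mix in the first replicate; 0 = DMSO median and -100 = no signal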
# Ecoli rRNA inh RFP: also measured in Ecoli rRNA inh; calls as there; RFP signal change, %; measured here: RFP humanized mutant strains;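 first replicate; 0 = DMSO median and -100 = no signal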
# An asterisk follows results filed as active; i = inactive; ? = inconclusive; . = not tested or not shown; & = joins results of further samples. Not all compounds are listed; the hit share may differ from the screen's.
nr	SMILES	Ecoli growth	FGF22 binding	AF4-AF9 inh	Vif TR-FRET	Ecoli rRNA inh
1	C[C@H]1CN([C@@H](C)CO)C(=O)c2cc(NC(=O)Nc3ccc4c(c3)OCO4)ccc2O[C@H]1CN(C)Cc1ccc(C(=O)O)cc1	.	i	-3.9	.	4
2	CC(C)CC#Cc1ccc2c(c1)O[C@@H](CN(C)Cc1ccncc1)[C@@H](C)CN([C@@H](C)CO)S2(=O)=O	.	i	5.3	.	-17
3	CN1c2ccc(-c3ccc(F)cc3)cc2[C@@H]2[C@@H](CCN2C(=O)Cc2ccccn2)[C@@H]1CO	.	i	4.6	.	-1
4	O=C1OCC(c2ccccc2)=C1c1ccccc1[N+](=O)[O-]	0.67	i	3.9	-6%	-15
5	C[C@@H]1CCCCO[C@@H](CN(C)Cc2ccc(C(=O)O)cc2)[C@H](C)CN([C@H](C)CO)C(=O)c2cc(NC(=O)CCCN(C)C)ccc2O1	.	i	-5.1	.	2
6	COc1cc(C2CC(=O)Oc3cc(C)c(Br)c(C)c32)cc(OC)c1OC (stereo not drawn)	0.66	i	-0.4	-2%	-35
7	COc1ccc(C)cc1-n1nnnc1SCc1nc2ccccc2c(=O)[nH]1	0.7	i	-1.3	-6%	2
8	O=C(c1cncs1)N1CCCC(CNS(=O)(=O)c2cccs2)C1 (stereo not drawn)	0.66	i	-0.5	9%	4
9	Cc1ccc(NC(=O)c2sc(N)nc2C)cc1	0.66	i	1.8	-8%	12
10	CC(C)(C)NS(=O)(=O)c1ccc(CCC(=O)N2CCCC2)cc1	0.66	i	-5.0	.	5

nr	Ecoli rRNA inh OD600	Ecoli rRNA inh RFP	HNF4A DNA FP	ALR H2O2 inh
1	7	-2.3	.	.
2	-33	31	.	.
3	0	2.3	.	.
4	-13	-1.0	-1.2	-9
5	2	-0.2	.	.
6	-43	-10	-3.7	.
7	-1	5.0	-4.8	-5
8	13	-0.3	5.1	-6
9	11	-5.3	2.2	-3
10	5	3.5	2.8	-2

# Later entries
nr	SMILES	Ecoli growth	FGF22 binding	AF4-AF9 inh	Vif TR-FRET	Ecoli rRNA inh
11	CCC1Oc2ccc(C)cc2N(CC(=O)N(Cc2ccncc2)Cc2ccco2)C1=O (stereo not drawn)	0.67	.	.	.	.
12	CC(=O)N1CCN(C(=S)c2ccc(N(C)C)cc2)CC1	0.69	i	11	2%	8
13	Cc1ccc(S(=O)(=O)ON=C2CCN(S(=O)(=O)c3ccccc3)CC2)cc1	0.7	.	.	4%	.
14	CC(=O)c1c(C)nc(C)nc1NC(=O)C(C)C	0.7	.	.	15%	.
15	Cc1ccc(NC(=O)C2CCN(C(=O)[C@@H]3Cc4ccccc4CN3)CC2)cc1	0.62	i	0.4	.	12
16	COc1ccc(C)cc1-n1nnnc1SCC(=O)N1CCC(C(=O)Nc2nccs2)CC1	0.7	.	.	-5%&-6%	.
17	CCOc1ccccc1/C=c1\sc2nc(-c3ccco3)nn2c1=O	.	.	.	14%&8%	.
18	O=S(=O)(c1ccc(SCc2ccc(Br)cc2)nc1)N1CCOCC1	0.69	i	-4.3	-11%	9
19	COC(=O)[C@H]1C[C@@]2(O)CN(S(=O)(=O)c3ccc(C)cc3)C[C@@]2(OC(=O)Nc2cccs2)C[C@H]1C(=O)OC	.	i	-0.2	3%	-1
20	COc1ccc(OC)c(NC(=O)CCN2CCC(C)CC2)c1	0.69	.	.	25µM*	.

nr	Ecoli rRNA inh OD600	Ecoli rRNA inh RFP	HNF4A DNA FP	ALR H2O2 inh
11	.	.	0.1	-8
12	-6	-3.7	0.8	98*
13	.	.	3.9	-17
14	.	.	0.7	-3
15	12	3.1	-2.3	-10
16	.	.	3.5	-22
17	.	.	-17	5
18	9	1.4	-0.4	.
19	-1	9.1	-2.1	.
20	.	.	-4.1	-20

# Ordered by SMILES length (low to high): some entries from above.
nr	SMILES	Ecoli growth	FGF22 binding	AF4-AF9 inh	Vif TR-FRET	Ecoli rRNA inh
9	Cc1ccc(NC(=O)c2sc(N)nc2C)cc1	0.66	i	1.8	-8%	12
14	CC(=O)c1c(C)nc(C)nc1NC(=O)C(C)C	0.7	.	.	15%	.
12	CC(=O)N1CCN(C(=S)c2ccc(N(C)C)cc2)CC1	0.69	i	11	2%	8
17	CCOc1ccccc1/C=c1\sc2nc(-c3ccco3)nn2c1=O	.	.	.	14%&8%	.
18	O=S(=O)(c1ccc(SCc2ccc(Br)cc2)nc1)N1CCOCC1	0.69	i	-4.3	-11%	9
10	CC(C)(C)NS(=O)(=O)c1ccc(CCC(=O)N2CCCC2)cc1	0.66	i	-5.0	.	5
11	CCC1Oc2ccc(C)cc2N(CC(=O)N(Cc2ccncc2)Cc2ccco2)C1=O (stereo not drawn)	0.67	.	.	.	.
13	Cc1ccc(S(=O)(=O)ON=C2CCN(S(=O)(=O)c3ccccc3)CC2)cc1	0.7	.	.	4%	.
15	Cc1ccc(NC(=O)C2CCN(C(=O)[C@@H]3Cc4ccccc4CN3)CC2)cc1	0.62	i	0.4	.	12

nr	Ecoli rRNA inh OD600	Ecoli rRNA inh RFP	HNF4A DNA FP	ALR H2O2 inh
9	11	-5.3	2.2	-3
14	.	.	0.7	-3
12	-6	-3.7	0.8	98*
17	.	.	-17	5
18	9	1.4	-0.4	.
10	5	3.5	2.8	-2
11	.	.	0.1	-8
13	.	.	3.9	-17
15	12	3.1	-2.3	-10

# Continued:
nr	SMILES	Ecoli growth	FGF22 binding	AF4-AF9 inh	Vif TR-FRET	Ecoli rRNA inh
21	C[C@H](CO)N1C[C@H](C)[C@@H](CN(C)C(=O)CN(C)C)Oc2cc(C3=CCCC3)ccc2S1(=O)=O	.	i	-4.4	.	7
22	O=C(CCCCn1c(=S)[nH]c2ccsc2c1=O)NCc1ccc2c(c1)OCO2	0.72	.	-1.2	13%	1
23	OC(c1ccccc1)c1nc(-c2cc(F)cc(F)c2)cs1 (stereo not drawn)	.	i	-4.1	.	.
24	CC(C)CN1CCNC(=O)C1CC(=O)NCCCN1CCCc2ccccc21 (stereo not drawn)	0.69	i	11	.	11
25	O=c1cc(CN2CCN(c3ccc(F)cc3)CC2)nc2sccn12	0.71	.	.	10%	.
26	CCn1ccnc1[C@@H]1C[C@H]2CN(c3ccccc3OC)C(=O)[C@]23CCCN13	0.68	i	0.2	0%	14
27	Cn1c(COc2ccc(Cl)cc2)nnc1SCC(=O)NC1CCCCC1	0.71	.	.	-9%	.
28	CCc1nc2ccc(C(=O)NCc3cccs3)cn2c1N(CC)Cc1cccc(Br)c1	.	i	1.3	.	9
29	COc1ccc(CCNC(=O)CCCN2C(=O)c3ccccc3C2=O)cc1	0.65	i	-0.1	29%	3
30	C[C@@H]1CN([C@H](C)CO)C(=O)Cc2cc(NS(=O)(=O)c3ccccc3)ccc2O[C@H]1CN(C)Cc1ccc(Oc2ccccc2)cc1	.	i	2.9	.	0

nr	Ecoli rRNA inh OD600	Ecoli rRNA inh RFP	HNF4A DNA FP	ALR H2O2 inh
21	18	-0.9	.	.
22	20	6.9	2.1	.
23	.	.	-2.3	.
24	-3	-1.7	-0.5	72
25	.	.	-6.6	98*
26	19	-14	0.9	-36
27	.	.	6.6	-2
28	-15	8.1	1.0	.
29	7	-2.3	0.8	-24
30	-6	3.2	.	.

# Other records follow:
nr	SMILES	Ecoli growth	FGF22 binding	AF4-AF9 inh	Vif TR-FRET	Ecoli rRNA inh
31	CCOc1ccc(NC(=O)c2cccc(OC(=S)N3CCOCC3)c2)cc1	0.69	i	0.0	-3%	3
32	C=CCNC(=O)NC(=O)COC(=O)/C(C#N)=C/c1cc(C)n(CCC(C)C)c1C	0.74	.	.	1%	.
33	Cn1cc(-c2cccc3nncn23)cn1	.	i	-2.0	.	13
34	CCOC(=O)C1CCN(Cc2cc(C(C)C)c(O)c(C(C)C)c2)CC1	0.66	i	1.4	21%	8
35	Cc1ccc(-c2nc3ncccc3n2O)cc1	0.56	i	-1.6	-5%	-7
36	Cc1oc(-c2ccccc2)nc1CS(=O)CC(=O)NC1CCCC1 (stereo not drawn)	0.71	i	-9.4	.	5
37	O=C(COc1cccc(C(F)(F)F)c1)Nc1ccc(S(=O)(=O)N2CCCC2)cc1	0.7	i	-1.8	3%	-8
38	COc1cc(C(=O)NCCc2ccc3c(c2)OCCO3)ccc1OCC(=O)N1CCOCC1	0.69	.	.	-5%	.
39	Cc1nc(SCC(=O)Nc2cc(S(=O)(=O)N3CCOCC3)ccc2Cl)nc(C)c1C	0.66	i	-1.0	-5%	-4
40	CN(C)c1ccc(C(CNS(=O)(=O)c2ccc(F)cc2)c2c[nH]c3ccccc23)cc1 (stereo not drawn)	0.65	.	.	1%	.

nr	Ecoli rRNA inh OD600	Ecoli rRNA inh RFP	HNF4A DNA FP	ALR H2O2 inh
31	7	-1.0	6.4	-6
32	.	.	-2.2	-4
33	19	3.0	2.8	.
34	5	-0.4	0.7	18
35	-4	-1.9	-0.9	6
36	-1	-6.6	-0.3	99*
37	13	18	-2.9	.
38	.	.	1.9	-23
39	-6	-3.1	-1.3	-1
40	.	.	-0.6	1

# Carrying on.
nr	SMILES	Ecoli growth	FGF22 binding	AF4-AF9 inh	Vif TR-FRET	Ecoli rRNA inh
41	Cc1cccc(OCC2=NS(=O)(=O)c3ccccc3N2)c1	0.63	.	.	1%	.
42	COc1ccc(-c2nc(NC(C)=O)sc2-c2ccccc2)cc1	0.72	i	3.2	-187%	-18*
43	O=C(CCSc1ccccc1)NC1CCCC1	0.68	.	.	31%	.
44	O=C(c1ccco1)N1CCN(C(=O)c2cnn3c(C(F)(F)F)cc(-c4cccs4)nc23)CC1	0.74	.	.	0%	.
45	CS(=O)(=O)Nc1ccc2c(c1)[C@@H]1C[C@@H](CC(=O)NCc3ccc(Oc4ccccc4)cc3)O[C@@H](CO)[C@@H]1O2	.	i	2.6	.	6
46	Cc1cc(C)n(/N=C/c2ccc(O)cc2)c(=O)c1C#N	.	i	-2.6	11%	6
47	COC(=O)c1c(NC(=O)CSc2ncnc3ccccc23)sc(C)c1C	0.66	i	-0.7	.	1
48	O=C(NCC1CCCO1)C(c1cccs1)N(Cc1cccs1)C(=O)Cn1nnc(-c2cccs2)n1 (stereo not drawn)	0.73	.	.	-9%	.
49	S=c1[nH]nc(-c2ccccc2Cl)n1/N=C/C=C/c1ccco1	.	i	47*	?	-1
50	CC1(C(=O)Nc2cccc(NS(C)(=O)=O)c2)Cc2c(-c3cccc(C(N)=O)c3)ccnc2O1 (stereo not drawn)	.	i	-2.4	.	-2
51	Cc1oc2c(C)c3oc(=O)c(CCC(=O)NCCCN4CCCC4=O)c(C)c3cc2c1C	0.69	i	-2.2	.	.
52	COc1cccc(NC(=S)N(CCN(C)C)C(C)c2cccnc2)c1 (stereo not drawn)	0.69	i	-0.6	.	6

nr	Ecoli rRNA inh OD600	Ecoli rRNA inh RFP	HNF4A DNA FP	ALR H2O2 inh
41	.	.	2.3	-2
42	11*	6.4*	1.6	-10
43	.	.	0.1	-8
44	.	.	9.6	-1
45	-5	0.9	.	.
46	2	-0.3	4.4	-14
47	1	-6.8	2.2	57
48	.	.	0.0	2
49	3	2.0	-1.9	.
50	-2	0.5	-4.2	.
51	.	.	4.8	5
52	10	-1.6	0.1	-15
